Bioassay records as filed in PubChem.
BJeLR viability = compounds reducing viability of BJeLR cells; AID 2275; 0.64% of 30,000 active; BJeLR fibroblasts viability, CellTiterGlo ATP luminescence, 48 h; HRASV12, hTERT and SV40 LT/ST transformed; viability loss activity score, % (test concentration not listed); in the data active means viability loss activity score above about 50%; about a fifth of its hits are not listed in these tables;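 further: higher score means fewer live cells and less ATP luminescence; stock transfer was 50 or 100 nL into about 30 µL; 0% = vehicle wells and 100% = a reference killing control; one replicate is shown; the record names a cut of 85%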
A1 inhib = blocks A1 activity; MEF A1-2A-BIM cells, caspase-Glo luminescence, 3 h; percent of clofoctol signal, DMSO as zero; caspase activation, % (test concentration not listed); AID 2241; 0.51% of 21,000 active;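 active means most replicate scores above 10, or exactly half above 10 with mean activity above 10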;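 further: effector caspase 3 and 7 activity cleaving a DEVD luciferin substrate; 50 nL library stock added to about 30 µL; numbers are from one replicate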
Active calls of the source: *; / = not tested or not shown. Only part of the results is shown; count on the stated rates, not on these rows.

canonical_smiles,BJeLR viability,A1 inhib
Cc1cc(C(=O)Nc2cccc3c2O[C@@H](CN(C)C(=O)Nc2ccc(F)cc2)[C@@H](C)CN([C@H](C)CO)C3=O)n(C)n1,-2.7,/
C[C@@H]1CN([C@H](C)CO)C(=O)c2cccc(NC(=O)Nc3ccccc3)c2O[C@H]1CN(C)Cc1ccc(C(=O)O)cc1,0.3,/
C[C@H](CO)N1C[C@H](C)[C@H](CN(C)C)Oc2c(NS(C)(=O)=O)cccc2C1=O,2.9,/
CC(C)(C)c1ccccc1OCC(=O)NCc1ccccc1,0.5,-0.9
COc1ccc(NC(=O)C2(C)c3ccccc3-c3ccccc32)cc1,2.7,1.9
C[C@@H]1CN([C@H](C)CO)C(=O)c2cc(NC(=O)Nc3cccc4ccccc34)ccc2O[C@@H]1CN(C)S(C)(=O)=O,0.9,0.1
C[C@H](CO)N1C[C@H](C)[C@H](CN(C)S(=O)(=O)c2cccs2)Oc2ccc(NS(=O)(=O)c3cn(C)cn3)cc2C1=O,3.6,-0.4
C[C@@H]1CN([C@H](C)CO)C(=O)c2cccc(NS(=O)(=O)c3ccc(F)cc3)c2O[C@@H]1CN(C)C(=O)Nc1ccccc1,2.0,/
COc1ccc(C2(C(=O)NCCc3ccccc3)CCCC2)cc1OC,-1.4,-0.3
Cn1c(Cc2nc(-c3cnccn3)no2)nnc1SCC(=O)Nc1ccc(Cl)cc1,-7.2,-0.3
CCC(Sc1nncn2c1cc1oc(C)cc12)C(=O)NCc1ccc(C)cc1 (stereo not drawn),-0.3,-0.6
C[C@@H]1CN([C@@H](C)CO)C(=O)c2cccc(NC(=O)NC3CCCCC3)c2O[C@@H]1CN(C)Cc1ccc2c(c1)OCO2,-5.1,/
O=C(C[n+]1ccc(/C=N/O)cc1)NC1CCCCC1,-1.5,0.4
CC(C)c1ccc(C2C(=O)C(=O)c3ccccc3C2=O)cc1 (stereo not drawn),6.5,-1.6
COc1ccc(S(=O)(=O)Nc2ccc3c(c2)C(=O)N([C@@H](C)CO)C[C@H](C)[C@H](CN(C)Cc2ccc4c(c2)OCO4)O3)cc1,-2.9,-0.3
CSc1sc(-c2[nH]ncc2Br)c2c1C(=O)CC(C)(C)C2,0.6,0.0
C[C@H]1CN([C@@H](C)CO)C(=O)c2cc(NS(=O)(=O)c3ccc(F)cc3)ccc2O[C@H]1CN(C)CC1CCCCC1,2.2,-0.2
C[C@H](CO)N1C[C@H](C)[C@@H](CN(C)Cc2ccc(C(F)(F)F)cc2)Oc2ccc(NC(=O)NC3CCCCC3)cc2C1=O,5.8,-0.2
CNC[C@H]1Oc2ccc(NS(=O)(=O)c3c(C)noc3C)cc2C(=O)N([C@H](C)CO)C[C@H]1C,-3.0,-0.4
O=C(NCCc1ccc(Cl)cc1)C12CC3CC(CC(C3)C1)C2,6.4,0.6
C[C@@H]1CN([C@@H](C)CO)C(=O)c2cccc(NC(=O)NC3CCCCC3)c2O[C@H]1CN(C)C(=O)Nc1ccc2c(c1)OCO2,-8.6,/
Cc1noc(C)c1S(=O)(=O)Nc1cccc2c1O[C@@H](CN(C)Cc1ccc(-c3ccccc3)cc1)[C@@H](C)CN([C@@H](C)CO)C2=O,-1.4,/
COc1ccc(CN(C)C[C@H]2Oc3c(NS(=O)(=O)c4ccc(OC)cc4)cccc3C(=O)N([C@@H](C)CO)C[C@@H]2C)cc1,-5.2,/
Cc1ccc2nsnc2c1S(=O)(=O)NC1CC1,2.1,/
C[C@H](CO)N1C[C@H](C)[C@H](CN(C)C(=O)Nc2ccc3c(c2)OCO3)Oc2ccc(NC(=O)CCC(F)(F)F)cc2C1=O,-7.6,0.2
Cc1sc2c(c1C)C(=O)C(C(=O)Nc1ccc(Cl)cc1)S(=O)(=O)N2C (stereo not drawn),2.0,0.4
COc1ccc(NC(=O)N(C)C[C@H]2Oc3c(NS(=O)(=O)c4c(C)noc4C)cccc3C(=O)N([C@@H](C)CO)C[C@H]2C)cc1,-0.3,/
O=C(Cc1ccccc1)NC1(C(=O)Nc2cccc(Cl)c2)CCCCC1,-3.4,0.0
CC1CN(C2=NC(=O)/C(=C/c3ccccc3)S2)CC(C)O1 (stereo not drawn),1.1,-0.3
O=C1SC(=S)N/C1=C/c1cccc(O)c1,0.5,-4.0
CC(C)NC(=O)N(C)C[C@@H]1Oc2ccc(NC(=O)C3CC3)cc2C(=O)N([C@@H](C)CO)C[C@@H]1C,-3.9,-0.2
CCc1nnc(SCc2ccccc2)c2cc3occc3n12,-2.3,-0.9
CC12CC(NC(=O)N1Cc1ccccc1)c1ccccc1O2 (stereo not drawn),2.7,/
CSc1nc2c(cc1C#N)CCCCC2,1.6,-1.4
Clc1cccc(CNc2ccc3nnc(-c4ccccc4)n3n2)c1,-2.7,0.1
CCOC(=O)c1ccc2nc(C(F)(F)F)nc(N3CCCCC3)c2c1,-1.3,-0.8
COc1ccc(NC(=O)N(C)C[C@H]2Oc3c(NC(=O)Nc4ccccc4)cccc3C(=O)N([C@@H](C)CO)C[C@H]2C)cc1,-1.3,/
O=C1NC(=O)C(Cc2ccccc2)N1 (stereo not drawn),0.0,0.1
C[C@@H]1CN([C@H](C)CO)C(=O)c2cccc(N(C)C)c2O[C@@H]1CN(C)Cc1ccc(-c2ccccc2)cc1,-2.4,/
COc1cccc(CNS(=O)(=O)c2ccc3[nH]c(=O)ccc3c2)c1,-8.2,-1.1
O=C(Nc1ccccc1)Nc1ccc(S(=O)(=O)Nc2ccc(F)cc2)cc1,2.0,0.2
CCn1c(C(=O)NCCc2ccccc2)cc2oc3ccccc3c21,11,0.2
CC(C)NC(=O)N(C)C[C@@H]1Oc2c(NC(=O)c3nc4ccccc4s3)cccc2C(=O)N([C@H](C)CO)C[C@@H]1C,-2.1,/
CCCC(CCC)C(=O)Nc1cc(-c2cn3cccnc3n2)ccc1C,3.3,/
Cc1c(C(=O)NCc2cccc(Cl)c2)oc2ccc3c(c12)C(=O)CC(C)(C)O3,-8.4,-1.6
C[C@H]1CN([C@@H](C)CO)C(=O)c2cc(NC(=O)C3CC3)ccc2O[C@H]1CN(C)Cc1ccccc1,1.1,-0.1
O=C(O)CC(NC(=O)C(c1ccccc1)c1ccccc1)c1ccc(F)cc1 (stereo not drawn),0.2,1.2
COC(Cn1c(SCC(=O)c2cccc(C(F)(F)F)c2)nnc1-c1ccc(Cl)cc1)OC,2.2,0.5
Cc1ccc(S(=O)(=O)N(C)C[C@H]2Oc3ccc(NS(=O)(=O)c4ccc(Cl)cc4)cc3C(=O)N([C@@H](C)CO)C[C@@H]2C)cc1,-0.7,0.5
CN1C(C(=O)c2ccccc2)C(=O)c2ccccc2S1(=O)=O (stereo not drawn),-6.0,-0.6
c1ccc(Cn2cc3c(-c4ccccc4)nnc-3c3ccccc32)cc1,-1.4,/
COC(=O)Cn1c2c(c3cc(C)ccc31)CCCC2,-1.2,/
C[C@@H]1CN([C@H](C)CO)C(=O)c2cc(NC(=O)C3CCCCC3)ccc2O[C@@H]1CN(C)Cc1ccc(C(=O)O)cc1,-0.3,-0.4
C[C@H]1CN([C@@H](C)CO)C(=O)c2cc(NC(=O)Cc3cn(C)c4ccccc34)ccc2O[C@H]1CN(C)C(=O)NC1CCCCC1,-5.1,-0.4
C[C@H]1CN([C@@H](C)CO)C(=O)c2cccc(NC(=O)Nc3ccccc3)c2O[C@H]1CN(C)Cc1ccccc1,3.9,/
Oc1c(C(Nc2cccc(Cl)c2)c2cccnc2)ccc2cccnc12 (stereo not drawn),-0.5,0.0
C[C@@H]1CN([C@@H](C)CO)C(=O)c2cc(NC(=O)CCN3CCOCC3)ccc2O[C@@H]1CN(C)Cc1ccc(C(=O)O)cc1,0.9,0.1
Cc1nnc(NC(C)C)s1,-4.4,-0.3
CCOC(=O)c1c(NC(=O)CN2C(=O)S/C(=C/c3ccc(F)cc3)C2=O)sc2c1CCCC2,2.3,0.1
C[C@H](CO)N1C[C@H](C)[C@@H](CN(C)Cc2ccc(C(F)(F)F)cc2)Oc2ccc(NC(=O)Nc3cccc4ccccc34)cc2C1=O,-0.2,-0.4

Ordered by the number under A1 inhib (highest first): six of the compounds above
compound	A1 inhib
Cc1ccc(S(=O)(=O)N(C)C[C@H]2Oc3ccc(NS(=O)(=O)c4ccc(Cl)cc4)cc3C(=O)N([C@@H](C)CO)C[C@@H]2C)cc1	0.5
CCOC(=O)c1c(NC(=O)CN2C(=O)S/C(=C/c3ccc(F)cc3)C2=O)sc2c1CCCC2	0.1
Oc1c(C(Nc2cccc(Cl)c2)c2cccnc2)ccc2cccnc12 (stereo not drawn)	0.0
Cc1nnc(NC(C)C)s1	-0.3
C[C@H]1CN([C@@H](C)CO)C(=O)c2cc(NC(=O)Cc3cn(C)c4ccccc34)ccc2O[C@H]1CN(C)C(=O)NC1CCCCC1	-0.4
CN1C(C(=O)c2ccccc2)C(=O)c2ccccc2S1(=O)=O (stereo not drawn)	-0.6

Entries of single compounds from above. Screens in order: BJeLR viability | A1 inhib
Results for CCOC(=O)c1c(NC(=O)CN2C(=O)S/C(=C/c3ccc(F)cc3)C2=O)sc2c1CCCC2 → 2.3 | 0.1
Results for Cn1c(Cc2nc(-c3cnccn3)no2)nnc1SCC(=O)Nc1ccc(Cl)cc1 → -7.2 | -0.3

Next section
canonical_smiles,BJeLR viability,A1 inhib
C[C@@H]1CN([C@@H](C)CO)C(=O)c2cccc(NS(=O)(=O)c3ccccc3)c2O[C@@H]1CN(C)Cc1ccc(C(F)(F)F)cc1,-3.8,/
COc1ccc(CN(C)C[C@H]2Oc3c(NS(=O)(=O)c4c(C)noc4C)cccc3C(=O)N([C@H](C)CO)C[C@H]2C)cc1,-4.3,/
COc1ccc(NC(=O)Nc2ccc3c(c2)C(=O)N([C@H](C)CO)C[C@@H](C)[C@@H](CN(C)C(=O)NC(C)C)O3)cc1,-1.6,-0.5
CCN(CC)CCNc1nc(C)cc(C)n1,11,/
Cc1ccc(NS(=O)(=O)c2c(C(C)C)cc(C(C)C)cc2C(C)C)cc1,-9.0,/
COc1ccc(NC(=O)N(C)C[C@H]2Oc3c(NS(=O)(=O)c4ccc(Cl)cc4)cccc3C(=O)N([C@@H](C)CO)C[C@H]2C)cc1,2.7,/
CCCCC/C=C\C/C=C\C/C=C\C/C=C\CCCCCC(=O)O,3.9,0.3
COc1ccc(S(=O)(=O)Nc2cccc3c2O[C@H](CN(C)C(=O)Nc2ccc4c(c2)OCO4)[C@H](C)CN([C@@H](C)CO)C3=O)cc1,1.6,/
COc1ccc(NC(=O)N(C)C[C@@H]2Oc3ccc(NC(=O)NC(C)C)cc3C(=O)N([C@H](C)CO)C[C@@H]2C)cc1,1.6,-0.8
O=C(Nc1ccccc1Sc1ncnc2sc3c(c12)CCCC3)c1cccs1,1.6,-1.2
COc1ccc(CN(C)C[C@@H]2Oc3ccc(NC(=O)Nc4ccc5c(c4)OCO5)cc3C(=O)N([C@@H](C)CO)C[C@@H]2C)cc1,0.8,-0.2
Cc1noc(C)c1S(=O)(=O)Nc1ccc2c(c1)C(=O)N([C@H](C)CO)C[C@@H](C)[C@H](CN(C)C(=O)NC1CCCCC1)O2,-1.2,0.2
CN(C)CCC(c1ccc(Cl)cc1)c1ccccn1 (stereo not drawn),-4.2,-0.6
O=C(Nc1ccccc1)OC1CCCC1,0.5,-5.7
CCN(c1nc(C)cc(OC)n1)S(=O)(=O)c1ccc(C)cc1,-9.1,-0.4
C[C@@H]1CN([C@H](C)CO)C(=O)c2cc(NS(C)(=O)=O)ccc2O[C@@H]1CN(C)Cc1ccc2c(c1)OCO2,0.0,-0.2
CC1C(O)C(N(C)C)CC2COCC21 (stereo not drawn),1.0,-0.5
O=C(Cn1ncn2cccc2c1=O)N1CCCCC1,-2.5,0.6
CN(C)C(=O)c1cc2c(=O)n3ccccc3nc2n1C,4.8,-0.8
OCc1nc(-c2cc(C(F)(F)F)cc(C(F)(F)F)c2)cs1,4.1,-1.2
COc1cc(CN(C(=S)NCC(=O)N2CCCC2)C2CCCC2)cc(OC)c1OC,-2.2,0.9
CNC[C@@H]1Oc2c(NS(=O)(=O)c3ccc(OC)cc3)cccc2C(=O)N([C@@H](C)CO)C[C@H]1C,-1.4,/
CC(C)(C)OC(=O)N1Cc2ccccc2C[C@H]1C(=O)NCCN1CCOCC1,-3.1,-0.7
CCCC(O)c1ccc(C)cc1CCCCCC(=O)O (stereo not drawn),-1.6,0.0
COc1ccc(S(=O)(=O)N(C)C[C@H]2Oc3ccc(NC(=O)NC4CCCCC4)cc3C(=O)N([C@@H](C)CO)C[C@@H]2C)cc1,-1.0,1.0
O=C(Nc1ccccc1)c1cc2c(=O)n3ccccc3nc2s1,5.7,/
C[C@H](CO)N1C[C@H](C)[C@@H](CN(C)S(=O)(=O)c2cccs2)Oc2ccc(NC(=O)Nc3ccc4c(c3)OCO4)cc2C1=O,-3.6,0.1
Cc1cc(C(=O)Nc2cccc3c2O[C@@H](CN(C)S(=O)(=O)c2c(C)noc2C)[C@@H](C)CN([C@@H](C)CO)C3=O)n(C)n1,-1.0,/
Cn1nccc1C(=O)Nc1ccc(Cl)cc1,5.3,-5.9
O=C(/C=C/c1ccccc1)Nc1cccnc1Oc1ccc(F)cc1,1.0,-3.7
O=C1CC(c2ccccc2)C(=O)N1c1cc(Cl)cc(Cl)c1 (stereo not drawn),-2.4,-0.6
C[C@H](CO)N1C[C@H](C)[C@H](CN(C)S(=O)(=O)c2ccc(Cl)cc2)Oc2c(NC(=O)Nc3ccccc3)cccc2C1=O,-6.6,/
C[C@@H]1CN([C@@H](C)CO)C(=O)c2cccc(NC(=O)C3CCOCC3)c2O[C@H]1CN(C)Cc1ccncc1,-1.7,/
Cc1oc2ccc(NS(=O)(=O)c3ccccc3)cc2c1C(=O)O,0.7,/
